High-throughput results as filed in PubChem.
gsp ag = activates gsp, the McCune-Albright syndrome mutation. gsp mutant cells, cAMP HTRF, 30 min; control for the full effect not named in the record. Potency, µM (series often up to 76.9 µM), for the others: at the top dose activation (cAMP increase), most hits filed as activators. actives 0.13% (n = 340,000); active = well fitted activation curve with a large enough effect; inconclusive = small, poorly fitted or top-dose-only effect, or another doubt; inactive = no such curve, though single readings can be large or run the other way; cell line not stated here;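 further: phosphodiesterase inhibitor Ro 20-1724 added with compounds to block cAMP breakdown; potency means the concentration at half of the fitted maximal effect; nearly all actives have a fitted effect of over 60% in size; about a fifth of the inactives were tested at one dose only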
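Cells in DMEM/10% FBS with G418 were pretreated with compounds in DMSO plus […] (300 uM stock) for 30 min at 37C. cAMP was measured by HTRF (cAMP-d2 plus anti-cAMP antibody-K) after 30 min at room temperature.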
TRPML1 ag = human mucolipin-1 channel agonism. Q9GZU1. TRPML1-expressing cells, Ca2+ dye fluorescence, FDSS; host cell line not named in the record; reference of the full effect not given here. activation, % (concentration not given with the values). actives 0.12% (n = 410,000); in the data active = activation above about 50%; inconclusive = about 30% to 50%; inactive = below about 30%; further: 0% is about no effect; the text of the record puts the active cut at 80%
Target sequence (Q9GZU1 whole entry, looked up): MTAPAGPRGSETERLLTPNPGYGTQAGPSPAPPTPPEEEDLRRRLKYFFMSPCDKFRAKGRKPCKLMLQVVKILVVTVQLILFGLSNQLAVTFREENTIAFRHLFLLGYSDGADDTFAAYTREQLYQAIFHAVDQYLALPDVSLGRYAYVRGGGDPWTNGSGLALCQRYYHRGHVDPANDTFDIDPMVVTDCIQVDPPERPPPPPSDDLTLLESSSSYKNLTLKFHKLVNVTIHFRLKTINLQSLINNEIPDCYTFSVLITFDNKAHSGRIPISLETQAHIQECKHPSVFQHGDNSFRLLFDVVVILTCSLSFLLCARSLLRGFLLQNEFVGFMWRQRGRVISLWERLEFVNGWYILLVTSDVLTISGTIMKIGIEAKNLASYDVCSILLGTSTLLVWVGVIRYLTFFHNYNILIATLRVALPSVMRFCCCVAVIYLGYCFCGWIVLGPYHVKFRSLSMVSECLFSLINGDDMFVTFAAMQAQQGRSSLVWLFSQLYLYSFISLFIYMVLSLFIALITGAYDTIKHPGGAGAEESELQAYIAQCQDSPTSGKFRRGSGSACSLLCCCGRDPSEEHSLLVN
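Agonist activity was taken from a 110 s kinetic Ca2+ dye read on the FDSS after pinning compounds onto TRPML1-DL cells. The cells were seeded at 1,500/well with Tet inducer, incubated about 16 h, then dye-loaded at room temperature.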
gsp antagonist = antagonists of gsp mutant (McCune-Albright syndrome) | gsp-mutant cells, cAMP HTRF, 30 min; control for the full effect not named in the record | Potency, µM (titrated, usually from 76.9 µM), without a hit: at the highest dose activity change, negative = inhibition, usual class: inhibitors | actives 0.4% (n = 340,000) | AID 624288; active = falling curve of any shape with a large fitted effect; inconclusive = falling curve, mostly with a smaller effect; inactive = flat or rising curve; cell line not stated here;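 further: intracellular cAMP measured with PDE inhibitor Ro 20-1724 present during compound exposure; potency means the concentration at half of the fitted maximal effect; on the % scale 0 is the no-effect control and ±100 the full control effect; nearly all actives have a fitted effect of over 65% in size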
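HTRF cAMP read-out (cAMP-d2 plus anti-cAMP antibody-K in lysis buffer, 30 min RT). Before lysis, cells are exposed to compounds with […] for 30 min at 37C in DPBS containing Ca/Mg, BSA and Tween 20.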
ClpP mod = qHTS Assay for Activators of ClpP | ATP-dependent Clp protease proteolytic subunit (Bacillus subtilis (strain 168)), P80244 | purified B. subtilis ClpP, FRET peptide cleavage, 20 min | Potency, µM (doses to about 57.5 µM), for the others: top-dose activity change, negative = active | actives 1.9% (n = 340,000); active = well fitted falling curve with a large enough effect; inconclusive = small, poorly fitted or top-dose-only effect; inactive = no such curve, though single readings can be large or run the other way; further: potency means the concentration at half of the fitted maximal effect; the source files actives as falling curves though it sought activators and does not explain the sign; nearly all actives have a fitted effect of over 65% in size; many hits overshoot -100%
Target sequence (P80244 whole entry, looked up): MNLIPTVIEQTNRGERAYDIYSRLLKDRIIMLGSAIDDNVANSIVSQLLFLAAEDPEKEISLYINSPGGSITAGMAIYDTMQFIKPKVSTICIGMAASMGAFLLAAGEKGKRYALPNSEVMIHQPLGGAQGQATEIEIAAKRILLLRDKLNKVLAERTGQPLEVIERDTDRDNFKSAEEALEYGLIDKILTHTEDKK
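ClpP 10 microg/mL final, pH 8 Tris/KCl buffer with BSA, glycerol, Tween-20; compound pinned in; FRET-FV substrate; RT 20 min; Ex320/Em430; ΔFRET vs ADEP 5.8 microM, DMSO, no enzyme.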
TRPML1 inh = human mucolipin-1 channel inhibition | activity change, negative = inhibition, % (concentration not given with the values) | Q9GZU1 | actives 0.02% (n = 390,000) | TRPML1-inducible cells, Ca2+ dye fluorescence, FDSS; hits give low values; inhibition of EC80 agonist-evoked calcium signal | AID 624415; in the data active means activity change below about -50%; inconclusive means about -30% to -50%; inactive means above about -30%;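 further: stimulus is agonist 54-4 at its EC80 concentration; on the % scale 0 is the no-effect control and ±100 the full control effect; compound concentration not given in the record; the text of the record puts the active cut at -80%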
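Calcium fluorescence in TRPML1-DL cells induced overnight with Tet: a 110 s read after compound pin addition, then a 110 s antagonist read after challenge with 54-4 at 4 uM final (EC80).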
Menin MLL FP FL = menin-MLL binding inhibition, fluorescein peptide. FP activity change, % at 61.4 µM. 290,000 tested, under 10 active. Fluorescence polarization, fluorescein-MLL peptide displacement from menin; inconclusive = falling polarisation curve, or a change in total fluorescence; inactive = total fluorescence flat and polarisation flat or rising; no compound was filed as active; the % refers to the polarisation; negative = inhibition;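 further: % of control where 0% means no effect; inhibitors lower the polarisation; unlabelled MLL peptide was the positive control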
The depositor's hits bear a star; ? = inconclusive; . = not tested or not shown; & = joins results of further samples; [ ] = dose if it differs, or a comment. Rows are unselected; 2.1% or so of the library scored in one or more.

structure,gsp ag,TRPML1 ag,gsp antagonist,ClpP mod,TRPML1 inh,Menin MLL FP FL
CSc1ccc(N2C(=O)NC3(CCCCC3)C2=O)cc1,-40%[inhibitor],8.0,10%,-8.1%,8,4.4
O=C(/C=C/c1ccccc1Cl)N(Cc1cccs1)C1CCS(=O)(=O)C1 (stereo unspecified),-53%[inhibitor],5.9,?,0.9%,9,2.5
COc1ccc(CN(C(=O)c2oc3ccccc3c2C)C2CCS(=O)(=O)C2)cc1 (stereo unspecified),-19%,1.2,-14%,-21%,12,5.4
O=C1CCCc2[nH]c(=O)c(-c3nc(-c4cccc([N+](=O)[O-])c4)cs3)cc21,.,2.2,.,-2.3%,-10,.
Cn1c(=O)c2c(-c3ccccc3)n3c(c2n(C)c1=O)C(c1cccc([N+](=O)[O-])c1)Nc1ccccc1-3 (stereo unspecified),.,-0.6,.,0.0%,13,.
CC12CCC(C(=O)Nc3cccc(Cl)c3Cl)([C@H](Br)C1=O)C2(C)C (stereo partly specified),?,1.8,-16%,.,-2,4.7
O=c1[nH]cnc(O)c1C(c1ccc(F)cc1)c1c(O)nc[nH]c1=O,-20%,-0.4,5%,1.3%,9,3.6
CCc1cc(=O)[nH]c(SCc2ccc(C)cc2)n1,-11%,2.1,-1%,.,-9,-4.1
CC1(C)C(c2cccs2)=[N+]([O-])C2(CCCCC/C2=N\NC(N)=S)N1O (stereo unspecified),2%,-0.2,3%,0.5%,35,-3.0
O=C(CSCc1ccc(Cl)cc1)N1CCCCC1,-24%,-0.5,0%,0.5%,-1,3.9
CC(C)(C)NC(=O)CN(C(=O)C(=O)Nc1ccc2c(c1)OCCO2)N1CCOCC1,12%[15.4 µM],0.2,-8%,.,20,2.4
CCOc1ccc(-n2c(C)c(C(C)=O)c3cc(OC(C)=O)ccc32)cc1,-4%,0.4,-8%,-2.8%,1,-0.4
Cc1cc(C)n(-c2nc3c(c(=O)[nH]c(=O)n3C)n2CC(O)COc2ccc(Cl)cc2Cl)n1 (stereo unspecified),22%,0.2,20%,-17%,20,6.0
Cc1cc(NS(=O)(=O)c2ccc(NC(=O)Nc3cccc(C(F)(F)F)c3)cc2)no1,-31%[inhibitor],-0.3,10%,.,-6,0.9
COc1cc(CNCCc2ccccc2F)ccc1OCC(=O)N1CCCCC1,1%[15.4 µM],1.5,14%,.,1,-6.1
COc1ccc(-c2nnc(C3CCN(S(=O)(=O)c4cccc(Cl)c4)CC3)o2)cc1,.,2.2,.,-6.0%,35,.
CCCNC(=O)CCNC(=O)[C@H](O)C(C)(C)CO,.,-0.1,2%,-4.4%,16,.
O=C(CCNS(=O)(=O)c1ccc(OC(F)(F)F)cc1)NCCc1c[nH]c2ccccc12,?,-0.5,-5%,0.0%,-15,.
C[C@H](CO)N1C[C@H](C)[C@@H](CN(C)C(=O)Nc2ccccc2)Oc2ccc(NC(=O)CCC(F)(F)F)cc2C1=O,.,0.2,14%,-1.5%,-8,.
COc1ccc(S(=O)(=O)NCC(=O)Nc2ccc3c(c2)OCCO3)cc1OC,3%[15.4 µM],-0.6,-6%,.,-9,2.8
O=C(O)Cc1ccc(O)cc1,-11%[15.4 µM],0.7,6%,.,-7,.
O=C(Nc1ccc2c(c1)OCO2)N1CCN(C/C=C/c2ccccc2)CC1,3%,0.6,2%,-2.8%,-4,-1.5
CCCN1CCC(=O)N([C@H](COc2ccccc2)Cc2ccccc2)CC1,.,0.2&-0.8,1%,1.0%&2.0%,79,2.6
COc1cc(OC)cc(-c2nc3ccccc3c(=O)n2OC(=O)c2ccc(C)c(C)c2)c1,-7%[15.4 µM],1.0,-30%,.,-1,2.6
O=C(NCCCN=C1NS(=O)(=O)c2ccccc21)c1ccc(F)cc1,29%,0.0,-12%,0.4%,8,3.2
COc1ccc([C@H]2C[C@@H](n3cc(-c4ccc(F)cc4)nn3)[C@H](O)CN2Cc2cccs2)cc1,?,1.2,.,-1.0%,-15,.
CN(C)c1ccc(N=Nc2nccs2)cc1,-31%[inhibitor],1.6,.,0.7%,-1,.
O=C(Nc1ccnn1C1CCN(Cc2ccn[nH]2)CC1)c1ccccc1,-41%[inhibitor],-0.5,3%,-0.6%,-7,.
COC(=O)c1ccc(-c2noc(CN3CCCCC3c3nccn3C)n2)cc1 (stereo unspecified),9%[15.4 µM],1.8,-7%,.,-14,-2.0
O=C(NNC1=NCCC1)c1cccc(S(=O)(=O)N2CCCCC2)c1,17%,0.2,3%,-2.6%,4,-3.6
CC(=O)C12OC(C)(C)OC1CC1C3CCC4=CC(=O)C=CC4(C)C3(F)C(O)CC12C (stereo unspecified),-17%,0.7,-1%,.,-12,.
Cc1cc(Cl)ccc1NC(=O)c1ccc2c(c1)OCO2,-32%[15.4 µM],0.1,3%,-3.1%,2,-5.6
CC(C)CN(C(=O)COC(=O)C1c2ccccc2Oc2ccccc21)C1CCS(=O)(=O)C1 (stereo unspecified),-44%[inhibitor],0.5,-12%,0.1%,21,5.5
COc1cc(CNCc2ccccn2)ccc1OCC(N)=O,-36%[inhibitor],0.7,2%,-0.2%,15,1.2
COc1cccc(N(C(=O)c2nc3nccc(C)n3n2)c2nc3ccccc3s2)c1,17%,1.3,-17%,.,-7,5.5
O=C(OCCCN1C(=O)c2ccccc2C1=O)c1ccco1,10%,-0.8,5%,-1.6%,3,0.8
Cc1cc(C(=O)COc2ncnc3sccc23)c(C)n1C1CC1,-43%[inhibitor],0.4,0%,0.3%,-7,-0.4
CC1=CC(C)(C)Nc2ccc(C)cc21,-24%,0.4,-4%,32µM*,7,-3.5
COc1ccc(NC(=S)NNC(=O)CNc2ccc(Cl)cc2)cc1,0%,5.6,-1%,1.7%,2,3.3
Cc1ccc(S(=O)(=O)NC(C)(C)CSc2nnc(Nc3ccccc3)s2)cc1,-4%,0.9,-8%,-2.6%,4,1.0
CCOc1ccc(C(CC(=O)Nc2cc(C)c(Cl)cc2OC)N2Cc3ccccc3C2=O)cc1OC (stereo unspecified),.,3.0,.,-2.1%,-25,.
O=C(NCCN1CCN(c2ccccc2)CC1)c1ccc2c(c1)[nH]c(=S)n1c3ccccc3nc21,41%[15.4 µM],-0.6,6%,-3.5%,12,2.3
Cc1ccc(C)c(NC(=O)CNS(=O)(=O)c2ccccc2)c1,8%,-0.6,10%,-2.6%,-2,3.0
CCCCC1CN2CCc3c([nH]c4ccccc34)C2(C)C1 (stereo unspecified),3%[15.4 µM],0.3,16%,-0.1%,27,11
Cc1cc(C)c2c(N)c(C(=O)Nc3cccc(C)c3C)sc2n1,2%,1.7,-4%,.,46,4.1
CCn1c(=NC(=O)COc2ccccc2)sc2cccc(F)c21,?,.,4%,-1.7%,.,-0.6
CC(C)(C)c1ccc(OCCCNC2CCCC2)cc1,-22%,1.1,12%,.,7,-0.6
CCOc1ccc(NC(=O)CNC(=O)c2ccc([N+](=O)[O-])cc2)cc1,5%[15.4 µM],-0.1,-16%,-0.2%,-6,2.8
Cc1cc(O)cc2c(=O)c3ccccc3sc12,3%[15.4 µM],2.0,8%,.,-11,8.2
COc1ccc(-n2c3c(cc(C(=O)NNc4ccccc4C)c2=O)C(=O)CC(C)(C)C3)cc1,23%,0.5,-4%,.,15,-1.0
CCOc1cc(S(=O)(=O)N(CC)CC)c(OCC)cc1-n1cnnn1,-4%,-0.2,-10%,16µM*,-4,-0.8
CCCCC(=O)Nc1nnc(SCC(=O)Nc2ccc(OC)cc2)s1,-46%[inhibitor],0.6,4%,-2.6%,33,-0.8
Clc1ccccc1Cn1nc(-c2ccccc2)nc1-c1ccccc1,26%,1.5,-13%,-25%,21,-3.1
CSC1=C(C#N)C(c2ccc(C)cc2)C2=C(CCCC2=O)N1 (stereo unspecified),-11%,-1.3,-11%,0.2%,5,1.2
Cc1ccc(N=Nc2ccc(O)c(/C=N\NC(=O)c3ccc(N)cc3)c2)cc1C,-73%[inhibitor],0.4,10%,-0.1%,52,0.8
COc1cccc(C(=O)NCCS(=O)(=O)N2CCCC(C)C2)c1 (stereo unspecified),-124%[inhibitor],-0.4,.,0.1%,1,.
O=C(COC(=O)c1n[nH]c2ccccc12)Nc1ccc([N+](=O)[O-])cc1,5%,-0.2,8%,-18%,-1,-6.2
CCCCCCCCNC(=O)/C(C#N)=C/c1ccc2c(c1)OCCO2,12%,2.4,-2%,8.6%,25,10.0
Cc1ccc(NC(=O)CCc2nnc3ccc(N4CCOCC4)nn23)cc1C,?,1.0,3%,-4.7%,1,-2.0
CCC(C)c1ccccc1OCCn1ccnc1 (stereo unspecified),-8%,0.0,-3%,1.1%,1,5.9

Continuation.
structure,gsp ag,TRPML1 ag,gsp antagonist,ClpP mod,TRPML1 inh,Menin MLL FP FL
CCOC(=O)c1cnc2c(OC)cccc2c1N1CCN(c2ccccn2)CC1,0%[15.4 µM],-0.1,?,-1.2%,0,-3.4
Cc1c(NC2=NC3(CCCCC3)Cc3ccccc32)c(=O)n(C)n1-c1ccccc1,4%,0.2,6%,-0.6%,-10,-1.2
COc1ccc(C(=O)/C=C(\C)NCc2ccc3c(c2)OCO3)cc1,?,-0.7,-7%,-1.4%,-3,-0.3
Oc1nc(Nc2cccc(Cl)c2)sc1/C=C1\C=Nc2ccccc21,-23%,1.2,-52%,-3.5%,-17,?
CCCN(CC(=O)Nc1ccc(NC(C)=O)cc1)CC(=O)Nc1ccc(F)c(F)c1F,?,-0.1,3%,.,-13,-2.4
CCOc1ccc(NC(=O)CCC(=O)NNC(=O)Nc2cccc(Cl)c2)cc1,1%,0.0,-12%,-3.9%,20,0.2
Cc1ccc2c(c1)C(O)(CC(=O)c1ccc3c(c1)OCO3)C(=O)N2 (stereo unspecified),5%,0.2,-4%,-3.4%,18,0.4
COc1ccc(S(=O)(=O)N(CCc2ccccc2)CC(N)=O)cc1,1%[15.4 µM],1.1,11%,.,16,-2.5
CCOC(=O)c1sc(-c2ccccn2)nc1C,9%[15.4 µM],-1.5,5%,0.6%,-4,-0.2
COc1ccc(NC(=O)NC2(C(=O)N3CCOCC3)CCCCC2)cc1,-21%,-0.7,7%,.,18,.
Cn1c(SCc2ccccc2Cl)nnc1-c1cnccn1,1%,-1.0,4%,-3.6%,34,4.1
